HNF4A DNA FP: change in binding of human HNF4 alpha to DNA | AID 1224865 | HNF4a-FITC DNA binding, fluorescence polarization, 1 h | P41235 | activity change, % at 10 µM | 360,000 tested, 0.3% active; in the data active means activity change above about 30%, passing the limit was not always enough;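 further: controls were the assay level and a saturating level of protein; the project sought stronger binding though the title names inhibitors; some compounds called inactive have numbers as strong as hits; positive values seem to mean higher polarization but the record does not say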
Target sequence (P41235 whole entry, looked up): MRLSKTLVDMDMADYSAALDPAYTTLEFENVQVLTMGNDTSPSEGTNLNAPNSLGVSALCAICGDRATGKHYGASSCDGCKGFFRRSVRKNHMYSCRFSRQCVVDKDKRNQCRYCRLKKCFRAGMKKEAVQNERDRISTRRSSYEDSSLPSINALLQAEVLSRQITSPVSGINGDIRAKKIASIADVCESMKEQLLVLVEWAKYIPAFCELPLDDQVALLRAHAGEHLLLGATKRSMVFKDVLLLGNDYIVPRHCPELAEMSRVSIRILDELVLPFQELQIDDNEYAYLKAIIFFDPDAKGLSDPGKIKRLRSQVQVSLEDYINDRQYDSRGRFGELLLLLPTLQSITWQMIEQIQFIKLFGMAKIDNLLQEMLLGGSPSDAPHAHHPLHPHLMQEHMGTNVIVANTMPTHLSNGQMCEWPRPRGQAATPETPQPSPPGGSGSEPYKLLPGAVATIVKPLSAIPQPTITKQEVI
FGF22 binding: shifts melting point of recombinant human FGF22; 340,000 tested, 1.5% active; recombinant FGF22 thermal shift, SYPRO orange fluorescence; percent of sucrose octasulfate shift, DMSO zero; Q9HCT0; calls only at 9.99 µM; AID 651658;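 active means melting point raised past a set limit in the mean and every replicate; three in four hits are not shown here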
LANA-H2B inh: blocks KSHV LANA binding to histone H2A/H2B. cell-free LANA-H2A/H2B peptide, fluorescence polarization. inhibition, % (concentration not given with the values). 320,000 tested, 0.6% active. AID 2629; in the data active means inhibition mostly above about 10%, no sharp cut-off; inactive means mostly below about 6.7%;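 further: stock transfer was 7.5 nL into about 10 µL; 0% = median of vehicle wells and 100% = median of positive control wells; one replicate is shown; the record names a cut of 25% in any replicate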
Ecoli growth: E. coli growth inhibition | Escherichia coli growth, OD600, 23 h; hits give low values | OD600 absorbance (no concentration beside the values) | 330,000 tested, 0.21% active;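 active means OD600 absorbance below the run mean of sample wells minus 3.6 SD, in any replicate, cut at about 0.56 in these data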;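 further: stock transfer was 300 nL into about 60 µL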
B2AR ag: agonists of human beta-2 adrenergic receptor inducing internalization; P07550; Am2.2-beta2AR cells, FAP receptor internalization, flow cytometry; reference of the scale not given here; response, % (no concentration beside the values); 340,000 tested, 0.43% active; AID 504454;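 active means response above a set limit, near 3 SD of response in nonfluorescent compounds, cut at about 42% in these data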;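 further: stock transfer was 100 nL into about 11 µL; a reference agonist was the positive control; negative values mostly stem from fluorescent compounds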
ALR H2O2 inh: human ALR oxidase inhibition via reduced H2O2; purified ALR, DTT oxidation, H2O2 HRP-luminol luminescence; AID 485317; P55789; 290,000 tested, 3.8% active; inhibition, % (no concentration beside the values);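 active means mean and each replicate at 75% or more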;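 further: stock transfer was 7.5 nL into about 7.5 µL; 0% = neutral wells and 100% = wells with inactivated enzyme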
Target sequence (P55789 whole entry, looked up): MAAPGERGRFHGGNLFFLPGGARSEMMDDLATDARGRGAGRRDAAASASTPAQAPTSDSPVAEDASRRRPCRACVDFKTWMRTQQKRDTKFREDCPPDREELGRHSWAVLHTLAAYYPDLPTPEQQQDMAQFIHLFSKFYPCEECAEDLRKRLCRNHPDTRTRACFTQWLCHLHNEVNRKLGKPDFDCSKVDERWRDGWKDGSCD
UCH37 inh: inhibitors of human deubiquitinating enzyme UCH37. inhibition, % (test concentration not listed). purified proteasome/UCH37, Ub-AMC cleavage fluorescence. 330,000 tested, 0.33% active. AID 588478. Q9Y5K5;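 active means mean of two replicates above 20%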;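 further: 0% = compound-free wells with enzyme and 100% = wells lacking proteasome; stock transfer was 100 nL into about 20 µL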
Target sequence (Q9Y5K5 whole entry, looked up): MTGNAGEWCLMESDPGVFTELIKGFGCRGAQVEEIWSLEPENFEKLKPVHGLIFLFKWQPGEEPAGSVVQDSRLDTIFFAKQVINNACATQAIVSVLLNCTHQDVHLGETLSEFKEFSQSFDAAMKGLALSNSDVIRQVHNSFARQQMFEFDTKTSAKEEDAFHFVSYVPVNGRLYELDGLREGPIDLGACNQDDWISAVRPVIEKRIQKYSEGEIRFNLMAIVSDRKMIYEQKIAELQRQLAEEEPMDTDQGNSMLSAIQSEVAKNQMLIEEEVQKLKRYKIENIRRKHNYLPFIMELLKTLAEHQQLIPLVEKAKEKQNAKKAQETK
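Material: Human UCH37 enzyme supplied as purified proteasome complex | Schedule: 30 min preincubation with enzyme, 25 min cleavage at room temperature | Detection: AMC fluorescence 355/460 nm | Measure: % inhibition of Ub-AMC cleavage fluorescence | Controls: Wells without proteasome as full block, compound-free enzyme plus substrate as uninhibited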
* marks the source's active call; other numbers are inactive results; i = inactive; · = not tested or not shown; + = active, no number. An excerpt (hit frequency here may not be typical).

| SMILES | LANA-H2B inh | B2AR ag | ALR H2O2 inh | FGF22 binding | UCH37 inh | HNF4A DNA FP | Ecoli growth |
| --- | --- | --- | --- | --- | --- | --- | --- |
| Cc1ccc(C(=O)OC(C)C(=O)NCc2ccc3c(c2)OCO3)cc1S(=O)(=O)N1CCOCC1 (stereo unspecified) | -0.7 | 2 | -10 | i | -1.9 | -6.4 | 0.68 |
| O=C(c1ccsc1)N1CCCC(N2CCN(c3ccccc3F)CC2)C1 (stereo unspecified) | -4.3 | 6 | -7 | i | 0.6 | -2.2 | 0.64 |
| CCn1c(=O)c([N+](=O)[O-])c(NCCc2ccc(OC)c(OC)c2)c2ccccc21 | -2.6 | -3 | -16 | i | 6.4 | 2.1 | 0.71 |
| C[n+]1c2n(c3ccccc31)N=C(c1cc(C(C)(C)C)c(O)c(C(C)(C)C)c1)CS2 | -3.0 | 8 | 22 | · | 15 | 1.0 | 0.61 |
| CC(C)(C)N=C1NN=C(c2ccc(S(=O)(=O)N3CCCCC3)cc2)CS1 | -0.4 | 5 | 0 | i | -8.2 | -2.4 | 0.64 |
| O=C(O)CCCC(=O)Nc1ccccc1C(=O)O | -1.3 | 3 | -7 | · | 5.6 | -0.6 | 0.69 |
| C#CC(CC)(CC)NC(=O)/C=C/C(=O)O | 7.1 | 1 | -1 | i | 3.6 | -1.6 | 0.64 |
| Cc1cc(C)c(C(=O)COc2cccnc2[N+](=O)[O-])cc1C | -1.6 | 12 | -29 | · | 1.8 | -0.9 | 0.7 |
| Cn1c(N)c(S(=O)(=O)NCc2ccc(F)cc2)c(=O)n(C)c1=O | 0.9 | 3 | -2 | i | 4.9 | -0.4 | 0.72 |
| Cc1ccc(S(=O)(=O)CCC(=O)OCC(=O)c2cc(C)n(C)c2C)cc1 | -9.1 | -1 | · | i | 5.3 | -1.3 | 0.68 |
| N#Cc1cccc(NC(=O)c2ccc(S(=O)(=O)N3CCOCC3)cc2)c1 | 3.4 | -1 | · | + | 2.6 | -0.7 | 0.68 |
| COc1ccc(-c2[nH]ncc2CN2CCC(C(=O)c3ccc(F)cc3)CC2)cc1 | -3.7 | -4 | 0 | i | 3.4 | 1.1 | 0.64 |
| CN(Cc1ccccc1)c1ccc(S(=O)(=O)N2CCOCC2)cn1 | 0.3 | -2 | · | · | 0.0 | -0.6 | 0.68 |
| Cc1csc(=O)n1CC(=O)OCC(=O)Nc1cc(Cl)ccc1[N+](=O)[O-] | -9.1 | -6 | -22 | i | 2.0 | -2.1 | 0.68 |
| O=C(COc1ccc(Br)cc1)Nc1ccc(NC(=O)c2ccccc2)cc1 | 0.1 | -10 | 1 | i | -1.6 | -3.4 | 0.69 |
| COc1ccc(C(C)=O)c2c1OCCO2 | -4.1 | -2 | -3 | · | 0.1 | 1.6 | 0.72 |
| COc1ccc(-c2noc(CNC(=O)c3ccc4c(c3)OCO4)n2)cc1 | -2.3 | -6 | -1 | i | 2.5 | 0.3 | 0.64 |
| O=C(CCc1ccccc1)Nc1nc2nc(-c3ccccc3)cc(=O)n2[nH]1 | -5.3 | -5 | 42 | · | 2.1 | -0.3 | 0.7 |
| Cc1cc(C)c2c(N)c(C(=O)N/N=C/c3ccccc3)sc2n1 | -2.0 | -2 | 4 | i | · | -1.4 | · |
| CC1CCCN(c2nc3c(c(=O)[nH]c(=O)n3C)n2Cc2ccccc2Cl)C1 (stereo unspecified) | -0.7 | 13 | 2 | i | 4.4 | -1.0 | 0.72 |
| CCN(CC)C(=O)CSc1nc(N)c(-c2ccccc2)c(=O)[nH]1 | -2.9 | 1 | -7 | i | 1.9 | -1.6 | 0.64 |
| Cc1nnc(NC(=O)CSc2ccc3nnc(-c4ccccn4)n3n2)s1 | -0.6 | 4 | -4 | i | -4.6 | -0.9 | 0.68 |
| O=C(C1CCCCN1S(=O)(=O)c1ccccc1[N+](=O)[O-])N1CCCC1 (stereo unspecified) | 6.3 | 7 | -15 | i | 0.7 | 0.3 | 0.68 |
| O=C(c1cn(-c2ccccc2)nc1-c1cccnc1)N1CCN(S(=O)(=O)c2cccc(F)c2)CC1 | · | -4 | 2 | i | 1.5 | 3.3 | 0.64 |
| Cc1cc(OCc2cccc(S(=O)(=O)N3CCOCC3)c2)ccc1Cl | 9.1 | 2 | -6 | i | · | 0.9 | · |
| CN/C=C1\C(=O)C(C)(C)Oc2ccc3ccc(=O)oc3c21 | -2.9 | -3 | 10 | · | 12 | -2.1 | 0.78 |
| COc1ccc2c(c1)Cc1sc(NC(=O)c3ccco3)nc1-2 | 1.0 | -11 | -8 | · | -1.3 | 1.3 | 0.71 |
| Cn1c(=O)c2c(ncn2CC(=O)N2CCN(S(=O)(=O)c3ccc(F)cc3)CC2)n(C)c1=O | -1.2 | -3 | -3 | i | 0.1 | -0.7 | 0.7 |
| CCOC(=O)c1c(C)nc2ccccc2c1-c1ccccc1 | -4.1 | 9 | -6 | · | 2.3 | 7.3 | 0.69 |
| Cc1cc(F)ccc1NC(=O)C(C)n1c2ccccc2c2nc(=O)cc(C)n21 (stereo unspecified) | 0.7 | -3 | -7 | i | 2.8 | 2.2 | 0.68 |
| COC(=O)c1cc(S(=O)(=O)N(C)C2CCCCC2)oc1C | 4.1 | -2 | -1 | i | -0.6 | -1.7 | 0.61 |
| CC1CCN(CCNC(=O)C2CCN(S(=O)(=O)c3cccc4nsnc34)CC2)CC1 | 5.6 | 2 | -4 | i | 6.7 | 2.4 | 0.69 |
| CCOC(=O)N1CCN(CC(O)COc2ccccc2C(C)C)CC1 (stereo unspecified) | 1.7 | -4 | -3 | · | 3.5 | 0.3 | 0.73 |
| C/C(CC(=O)Nc1cccc(Cl)c1C)=N\NC(=O)C(=O)NCC(C)C | -6.7 | 3 | 1 | · | · | 4.3 | · |
| Nc1ncnc2c1ncn2[C@H]1CC[C@@H](CO)O1 | -3.5 | 2 | 4 | i | 3.4 | 0.3 | 0.36* |
| CCC(c1nnnn1C(C)(C)C)N1CCN(C(=O)c2ccco2)CC1 (stereo unspecified) | -1.7 | -5 | · | i | 2.8 | 3.9 | 0.69 |
| CN(C(=O)CSc1nc2c(c(=O)[nH]1)CCC2)c1ccccc1 | 0.8 | 1 | · | i | -3.8 | 0.8 | 0.66 |
| O=C(Nc1ccc(Cl)c(Cl)c1)Nc1ccccc1NS(=O)(=O)c1cccs1 | 2.4 | 0 | 28 | + | 1.7 | -0.5 | 0.65 |
| CCOC(=O)Nc1nc2ccc(Cn3cccc3)cc2[nH]1 | · | 33 | · | i | · | -4.7 | · |
| COc1ccc2c(c1OC)C(=O)OC2CC(=O)c1ccc(N(C)C)cc1 (stereo unspecified) | -2.5 | -4 | -1 | · | 13 | 3.4 | 0.73 |
| O=C(CSc1nnc(-c2ccco2)o1)NC(=O)Cc1ccccc1 | 6.3 | 1 | -5 | · | 0.8 | 0.7 | 0.72 |
| O=C1NC(=O)C(Cc2ccccc2)(c2ccccc2)N1 (stereo unspecified) | · | 5 | · | i | 1.5 | -0.8 | 0.67 |
| Cc1nc(SCC(=O)Nc2ccc3c(c2)OCCO3)c2oc3ccccc3c2n1 | 1.0 | 0 | -2 | · | 1.8 | -3.2 | 0.75 |
| Nn1c(-c2ccccc2)nc2ccccc2c1=O | 4.4 | -2 | -4 | i | 5.7 | -0.7 | 0.69 |
| COc1ccc(N2CCN(C(=O)c3ccc4ccccc4n3)CC2)cc1 | 16* | 2 | 71 | i | 4.6 | 0.3 | 0.67 |
| Nc1ccc2nc(Cc3ccccc3)[nH]c2c1 | -7.9 | 1 | 100* | i | · | 3.4 | · |
| COCCN(C(=O)Cc1cccs1)C(C(=O)NCc1ccc(OC)cc1)c1ccccc1 (stereo unspecified) | 0.8 | -5 | -2 | · | 2.6 | -1.1 | 0.67 |
| CCOc1ccc(C2/C(=C(\O)c3ccc4c(c3)OCCO4)C(=O)C(=O)N2CCN2CCOCC2)cc1OC (stereo unspecified) | -1.5 | 1 | -4 | i | 12 | 5.5 | 0.69 |
| CC(=O)Nc1ccc(S(=O)(=O)NCCSCc2c(Cl)cccc2Cl)cc1 | -1.5 | -6 | 7 | · | 2.6 | 5.7 | 0.69 |
| Cc1ccc(NS(=O)(=O)c2c(C(=O)N3CCCCCC3)c(C)n(C)c2C)cc1C | 3.4 | 4 | -7 | i | 2.3 | 7.6 | 0.66 |

(list continues)
| SMILES | LANA-H2B inh | B2AR ag | ALR H2O2 inh | FGF22 binding | UCH37 inh | HNF4A DNA FP | Ecoli growth |
| --- | --- | --- | --- | --- | --- | --- | --- |
| COc1ccc(Br)cc1C(=O)Nc1ccccc1N1CCCC1 | 3.6 | -6 | 26 | i | 7.0 | 1.3 | 0.68 |
| Cc1c(C(=O)N2CCCC2)oc2c1-c1[nH]ncc1CC2 | -5.8 | 4 | -44 | i | 2.0 | 2.6 | 0.77 |
| Cc1ccc2c(c1)nnn2C1CCN(CC(=O)NCCc2nc3ccccc3[nH]2)CC1 | -4.5 | -8 | -7 | · | 0.8 | -2.2 | 0.7 |
| CC(C)=CCC/C(C)=C/CNC(=O)CC1C[C@H](C(=O)N2CCOCC2)[C@@]2(C)c3[nH]c4ccccc4c3CCN2C1=O (stereo partly specified) | -318 | 4 | -4 | i | 2.9 | -1.4 | 0.71 |
| CSCC(=O)N1CCC(n2nccc2NC(=O)CCCc2ccccc2)CC1 | 3.7 | -3 | -6 | i | -1.9 | 8.0 | 0.69 |
| CC(=O)N(c1ccccc1)c1nc(/C=C/C(=O)O)cs1 | -0.5 | 4 | -12 | i | 1.2 | -0.1 | 0.69 |
| COc1ccc2oc(=Nc3cccc(F)c3)c(C(N)=O)cc2c1 | 1.5 | -7 | 0 | i | -4.2 | -1.1 | 0.7 |
| COCc1ccc(C(=O)N2CCCC(C(=O)c3ccc(SC)cc3)C2)s1 (stereo unspecified) | -0.7 | -7 | 4 | i | 2.6 | -2.2 | 0.71 |
| Cc1c(NC(=O)CN2C(=O)NC3(CCC(C)CC3)C2=O)c(=O)n(-c2ccccc2)n1C (stereo unspecified) | -6.3 | -1 | · | i | -0.3 | -2.1 | 0.69 |
| O=C(Nc1ccc(N2CCOCC2)cc1)c1ccc(Cl)c(S(=O)(=O)N2CCCC2)c1 | -0.3 | 16 | 0 | i | -11 | 0.3 | 0.68 |
| O=C(Nc1ccccc1)Oc1ccccc1N1CCOCC1 | 0.1 | 3 | 2 | i | 3.2 | 2.6 | 0.69 |
| CCC(C)(C(=O)NC1CCCCC1)N(C(=O)c1ccccn1)c1ccc(C)cc1 (stereo unspecified) | -0.2 | -3 | -21 | · | -0.4 | 3.1 | 0.72 |
| O=C(CN1CCc2cc3c(cc2C1)OCCCO3)Nc1c(F)cccc1F | 0.9 | -8 | -5 | i | 3.2 | -0.3 | 0.67 |
| Cc1csc2c(=O)sc(NC(=O)c3cccs3)nc12 | 0.5 | -9 | 0 | i | -16 | 7.1 | 0.67 |
| Cc1cc(N2CCN(C)CC2)nc2ccc(NC(=S)N3CCC4(CC3)OCCO4)cc12 | 3.6 | -2 | · | i | 4.2 | 0.1 | 0.68 |
| COc1ccc(C(=O)N(C)CC(O)c2ccccc2)cc1OC1CCN(C(C)=O)CC1 (stereo unspecified) | -0.5 | 16 | -4 | i | 5.4 | -1.6 | 0.67 |
| COc1cc(-c2nnc(-c3ccco3)o2)ccc1OCc1ccccc1 | 0.7 | -1 | -1 | · | -66 | -1.2 | 0.67 |
| CCOC(=O)C(Cc1c(F)cccc1Cl)c1ccno1 (stereo unspecified) | -3.7 | 16 | -7 | i | 1.6 | 0.3 | 0.66 |
| CCCCOC(=O)C1=C(C)Nc2ncnn2C1c1cc(OC)ccc1OC (stereo unspecified) | -0.1 | -14 | 3 | · | 1.6 | 3.9 | 0.69 |

Single records, from the list above.
Listed for O=C(Nc1ccccc1)Oc1ccccc1N1CCOCC1 : LANA-H2B inh = 0.1; B2AR ag = 3; ALR H2O2 inh = 2; FGF22 binding = i; UCH37 inh = 3.2; HNF4A DNA FP = 2.6; Ecoli growth = 0.69
Listed for CSCC(=O)N1CCC(n2nccc2NC(=O)CCCc2ccccc2)CC1 : LANA-H2B inh = 3.7; B2AR ag = -3; ALR H2O2 inh = -6; FGF22 binding = i; UCH37 inh = -1.9; HNF4A DNA FP = 8.0; Ecoli growth = 0.69

Source: PubChem BioAssay
